AF4-AF9 inh: MLL-AF4/AF9 protein interaction inhibition; P42568; AlphaScreen, biotin-AF4 peptide binding to FLAG-AF9; inhibition, % at 10 µM; hit rate 0.47% among 350,000;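 active means every replicate reaching a set inhibition limit, whatever the replicate mean, cut at about 25% in these data; inconclusive means mean inhibition reaches that limit but some replicates miss it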;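 further: 0% = plate neutral control median and 100% = total signal loss; the record names both 10 and 1 µM as test concentration; the first replicate is given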
Target sequence (P42568 whole entry, looked up): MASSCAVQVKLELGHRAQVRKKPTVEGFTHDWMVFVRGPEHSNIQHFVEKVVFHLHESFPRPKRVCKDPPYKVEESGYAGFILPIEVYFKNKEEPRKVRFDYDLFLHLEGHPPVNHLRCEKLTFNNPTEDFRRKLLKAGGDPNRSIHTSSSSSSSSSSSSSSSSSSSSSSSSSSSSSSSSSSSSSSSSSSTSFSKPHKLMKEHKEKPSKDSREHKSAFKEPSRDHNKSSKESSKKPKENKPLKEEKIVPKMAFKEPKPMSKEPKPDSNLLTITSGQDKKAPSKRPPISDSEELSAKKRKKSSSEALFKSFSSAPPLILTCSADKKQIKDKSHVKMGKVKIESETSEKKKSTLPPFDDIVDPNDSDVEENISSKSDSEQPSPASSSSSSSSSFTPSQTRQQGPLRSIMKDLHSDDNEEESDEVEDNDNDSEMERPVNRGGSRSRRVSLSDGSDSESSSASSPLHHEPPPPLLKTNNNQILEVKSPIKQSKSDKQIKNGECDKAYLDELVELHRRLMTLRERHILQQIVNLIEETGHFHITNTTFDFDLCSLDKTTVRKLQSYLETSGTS
RanGTP-Imp inh: inhibitors of RanGTP-importin-beta interaction, primary screen, biochemical, FRET, CFP-Ran, YFP-importin-beta, homogeneous; cell-free CFP-Ran/YFP-importin-beta FRET ratio; inhibition, % (test concentration not listed); hit rate 1.1% among 300,000; AID 2216;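 active means most replicates above 15%; inconclusive means exactly half above 15%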;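 further: 0% = DMSO wells and 100% = Ran loaded with GDP instead of GTP; wells of about 40 µL received 100 nL stock; the first replicate is given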
Bfl-1 A1 inh: inhibitors of the anti-apoptotic protein A1, read as caspase activation. MEF A1-2A-BIM cells, Caspase-Glo 3/7 luminescence, 3 h; percent of clofoctol response, vehicle zero. caspase activation, % (no concentration beside the values). hit rate 0.066% among 330,000;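 active means over half of replicate activation scores above 10%, or exactly half above 10 with the replicate mean above 10; inconclusive means replicate mean below 10 yet half the replicates above 10; inactive means over half of replicates below 10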;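 further: wells of about 30 µL received 50 nL stock; many hits fall short of the cut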
rRNA inh HTS: inhibits bacterial ribosomal RNA function over humanized ribosomes; E. coli WT GFP vs humanized-ribosome RFP mutants, fluorescence, 24 h; hits give low values; DMSO median 0, no signal -100; GFP signal change (wild-type ribosome), % (no concentration beside the values); hit rate 1.6% among 350,000; AID 720706;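 active means significant combined selectivity score with lowered wild-type GFP, culture density cut under 30%, mutant RFP and density less affected; inactive means any of these conditions unmet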; further: one replicate is shown; some compounds called inactive have numbers as strong as hits
Calb FLC: C. albicans growth modulation with fluconazole. C. albicans CaCi-2 (fluconazole-resistant clinical isolate) + fluconazole, Alamar Blue growth, 48 h. growth inhibition, % (test concentration not listed). hit rate 0.57% among 300,000. AID 1979;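 active means most replicates above 75%; inconclusive means exactly half above 75%; inactive means most below 75%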;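 further: all wells also contain fluconazole at 8 µg/ml as a sub-toxic cotreatment; 0% = median of DMSO wells and 100% = median of geldanamycin control wells; wells of about 8 µL received 7.5 nL stock; the first replicate is given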
Beta cell apopt: beta cell apoptosis inhibition; INS-1E cytokine-induced death, ATP luminescence, 48 h; percent of positive-control rescue, neutral wells zero; protection from apoptosis, % (no concentration beside the values); hit rate 0.8% among 300,000;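 active means all replicates at 75% or more, or half of them and the mean; inconclusive means half reach 75% but not the mean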;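 further: 0% = cytokine-treated negative control wells and 100% = positive control rescue; higher means more ATP so stronger rescue from cytokine killing; wells of about 40 µL received 100 nL stock; the first replicate is given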
T cruzi inh: blocks replication of Trypanosoma cruzi; T. cruzi beta-gal in NIH3T3, luminescence, 90 h; hit rate 1.4% among 300,000; inhibition, % (no concentration beside the values);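 active means mean inhibition across valid replicates above about 55%, limit read from the data; inconclusive means mean below that limit but half or more replicates reach it; inactive means mean below it, under half of replicates reach it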;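 further: signal also drops with host cell toxicity which is not excluded here; 0% = plate median of DMSO wells and 100% = zero luminescence signal; higher percent means less beta-gal luminescence so fewer parasites; stock transfer was 50 nL into about 50 µL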
Vif A3G: HIV-1 Vif–A3G interaction blockers – biochemical, TR-FRET, GST-Vif 1-94, biotin-A3G peptide, dose response retest, primary screen (AID 1117319) | TR-FRET GST-Vif / biotin-A3G peptide binding; higher % means a stronger effect; test concentration not given here; strong numbers were not always called active | one-dose inhibition, %; IC50 in µM for titrated hits | hit rate 0.57% among 260,000;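 active means above the screen mean plus three standard deviations and confirmed in dose response; inconclusive means results disagree or hit not tested in dose response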;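 further: Vif residues 1-94 fused to GST binding biotinylated APOBEC3G peptide 110-148; 0% = full assay without inhibitor and 100% = GST in place of GST-Vif; retest series ran down from 100 µM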
rRNA inh HTS OD600: further read-out of rRNA inh HTS, marked with its call; OD600 change, %; measured here: OD600 growth;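 optical density of the mix in the first replicate; 0 = DMSO median and -100 = no signal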
rRNA inh HTS RFP: recorded beside rRNA inh HTS, whose call it bears; RFP signal change, %; measured here: RFP humanized mutant strains;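 first replicate; 0 = DMSO median and -100 = no signal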
Active calls of the source: *. Some of the compounds tested (hit frequency here may not be typical).

Screening Cc1cc(-c2nnc(SCC(=O)Nc3ccc(F)cc3F)n2N)n[nH]1 returned AF4-AF9 inh 0.5, RanGTP-Imp inh -3.4, Bfl-1 A1 inh -1.2, rRNA inh HTS 3, Calb FLC 4, Beta cell apopt -5, T cruzi inh -2, rRNA inh HTS OD600 1 and rRNA inh HTS RFP -1.6.
COc1ccccc1C1CCN(Cc2ccc(C)cc2)CC1 was read as AF4-AF9 inh 8.1, RanGTP-Imp inh -5.1, Bfl-1 A1 inh -0.2, rRNA inh HTS 9, Calb FLC 0, Beta cell apopt 15, T cruzi inh 25, Vif A3G -7%, rRNA inh HTS OD600 5 and rRNA inh HTS RFP 1.2.
For CC(=O)Nc1ccc(OCC(O)CN2C(C)CCCC2C)cc1 (stereo unspecified) the results were RanGTP-Imp inh 0.2, Bfl-1 A1 inh -0.4, Calb FLC 0, Beta cell apopt 0, T cruzi inh -17 and Vif A3G 7%.
COc1ccc(N2CCN(C(=O)CCC(=O)N3CC(C)Oc4ccccc43)CC2)cc1 (stereo unspecified) was read as AF4-AF9 inh -13, RanGTP-Imp inh 1.4, Bfl-1 A1 inh -0.2, rRNA inh HTS 15, Calb FLC -5, Beta cell apopt 4, T cruzi inh -2, rRNA inh HTS OD600 19 and rRNA inh HTS RFP 25.
`Cc1ccc2cc(NC(=O)CC(CC(=O)O)c3ccccc3)ccc2n1` (stereo unspecified) gave AF4-AF9 inh 0.1, RanGTP-Imp inh 1.0, Bfl-1 A1 inh 1.0, rRNA inh HTS 11, Calb FLC -15, T cruzi inh -8, Vif A3G -14%, rRNA inh HTS OD600 1 and rRNA inh HTS RFP 0.2.
`CCNc1nc(C(=O)O)nc(N2CCOCC2)n1` gave AF4-AF9 inh -0.7, RanGTP-Imp inh 3.2, Bfl-1 A1 inh 0.5, rRNA inh HTS 15, Calb FLC 4, Beta cell apopt 0, T cruzi inh -14, rRNA inh HTS OD600 18 and rRNA inh HTS RFP 0.0.
COC(=O)COc1cccc2c(=O)n(CC(=O)N3CCC(C)CC3)ccc12 was read as AF4-AF9 inh -12, RanGTP-Imp inh -1.8, Bfl-1 A1 inh 0.2, rRNA inh HTS 7, Calb FLC 11, Beta cell apopt -1, T cruzi inh 1, Vif A3G -3%, rRNA inh HTS OD600 6 and rRNA inh HTS RFP 16.
O=C(NCc1ccc(F)cc1)c1cc2sccc2n1Cc1ccc(F)cc1 was read as RanGTP-Imp inh 2.2, Bfl-1 A1 inh -1.2, Calb FLC -9, Beta cell apopt 2, T cruzi inh 39 and Vif A3G -9%.
Screening COC(=O)CCC(=O)OC1(C)C(=O)C=C2C=C(C3CC3)N(Cc3ccc(OC)cc3)C=C2C1=O (stereo unspecified) returned AF4-AF9 inh 1.3, RanGTP-Imp inh 20*, Bfl-1 A1 inh 1.0, rRNA inh HTS 11, Calb FLC 11, Beta cell apopt -4, T cruzi inh 6, Vif A3G 31%, rRNA inh HTS OD600 15 and rRNA inh HTS RFP 6.9.
Screening Cc1nn(C2CCS(=O)(=O)C2)c(Cl)c1/C=C/C(=O)OCC(=O)c1cc(C)n(-c2ccc(F)cc2)c1C (stereo unspecified) returned AF4-AF9 inh 2.3, RanGTP-Imp inh -1.6, Bfl-1 A1 inh -0.8, rRNA inh HTS -7, Calb FLC 8, Beta cell apopt 1, T cruzi inh 7, rRNA inh HTS OD600 3 and rRNA inh HTS RFP -2.0.
Screening Cc1ccnc(NC(=O)c2ccc(S(=O)(=O)N3CCCCC3)cc2)c1 returned AF4-AF9 inh 2.9, Bfl-1 A1 inh -0.5, rRNA inh HTS -1, Beta cell apopt 8, Vif A3G -10%, rRNA inh HTS OD600 4 and rRNA inh HTS RFP 0.5.
`Cc1ccc(-c2nnc(SCC(=O)N3CC(C)CC(C)C3)o2)cc1C` (stereo unspecified) gave AF4-AF9 inh -5.8, RanGTP-Imp inh -1.6, Bfl-1 A1 inh 0.3, rRNA inh HTS -44, Calb FLC 9, Beta cell apopt -2, T cruzi inh 16, Vif A3G 74%, rRNA inh HTS OD600 -56 and rRNA inh HTS RFP -6.0.
`O=C(Nc1ccc2c(c1)OCO2)c1ccc(CO)cc1` gave AF4-AF9 inh 0.4, Bfl-1 A1 inh -9.1, rRNA inh HTS 8, Beta cell apopt -3, rRNA inh HTS OD600 9 and rRNA inh HTS RFP -2.8.
Cc1ccccc1C(=O)Nc1ccc2c(c1)C(=O)NC2=O was read as AF4-AF9 inh -0.7, RanGTP-Imp inh 1.3, Bfl-1 A1 inh -0.7, rRNA inh HTS 7, Calb FLC -3, Beta cell apopt -3, T cruzi inh -11, rRNA inh HTS OD600 12 and rRNA inh HTS RFP 0.2.
For COc1ccc(Cl)cc1NC(=O)CN1CCCCCC1 the results were AF4-AF9 inh -0.2, RanGTP-Imp inh -2.9, Bfl-1 A1 inh 1.1, rRNA inh HTS -1, Calb FLC -9, Beta cell apopt 1, T cruzi inh -1, Vif A3G 4%, rRNA inh HTS OD600 -3 and rRNA inh HTS RFP -5.1.
Screening O=C(Nc1ccc(N2CCOCC2)nc1)c1ccc(Cl)cc1 returned RanGTP-Imp inh 3.6, Bfl-1 A1 inh -0.8, Calb FLC -8, Beta cell apopt -1, T cruzi inh -4 and Vif A3G -4%.
COc1cccc(NC(=O)CN(C)C(=O)c2ccc(N3CCOCC3)c([N+](=O)[O-])c2)c1 was read as AF4-AF9 inh 1.8, RanGTP-Imp inh 6.5, Bfl-1 A1 inh 0.0, rRNA inh HTS -2, Calb FLC -4, Beta cell apopt 2, T cruzi inh 2, Vif A3G -3%, rRNA inh HTS OD600 0 and rRNA inh HTS RFP -2.3.
For O=C(Cn1cnc2c(nnn2Cc2ccc(F)cc2)c1=O)Nc1cccc(F)c1 the results were AF4-AF9 inh -1.1, RanGTP-Imp inh -5.1, Bfl-1 A1 inh 0.5, rRNA inh HTS 9, Calb FLC -5, Beta cell apopt -4, T cruzi inh -29, Vif A3G 3%, rRNA inh HTS OD600 14 and rRNA inh HTS RFP 0.0.
Screening CC(C)(C)c1cc(C(=O)NNC(=O)c2ccc(C(F)(F)F)cc2)no1 returned AF4-AF9 inh 0.0, RanGTP-Imp inh inconclusive, Bfl-1 A1 inh 0.5, rRNA inh HTS 4, Calb FLC -3, Beta cell apopt 2, T cruzi inh -16, Vif A3G -8%, rRNA inh HTS OD600 6 and rRNA inh HTS RFP 1.2.
Screening O=S(=O)(c1cccc(Cl)c1)N1CCC(c2nc3ccccc3[nH]2)CC1 returned AF4-AF9 inh 0.6, RanGTP-Imp inh -5.4, Bfl-1 A1 inh -0.7, rRNA inh HTS -2, Calb FLC -3, Beta cell apopt 28, T cruzi inh 7, rRNA inh HTS OD600 -5 and rRNA inh HTS RFP 1.1.
Screening COc1ccc(NCC(=O)N/N=C/c2ccc3c(c2)OCCO3)cc1 returned RanGTP-Imp inh -5.0, Bfl-1 A1 inh -0.3, Calb FLC -11, Beta cell apopt 26 and T cruzi inh -6.
O=C(OCc1ccccc1)/C(=C(\O)c1ccccc1Br)c1ccc(-c2ccccc2)cn1 was read as AF4-AF9 inh 3.3, RanGTP-Imp inh 0.7, Bfl-1 A1 inh 1.4, rRNA inh HTS 6, Calb FLC 2, Beta cell apopt 9, T cruzi inh -9, rRNA inh HTS OD600 -5 and rRNA inh HTS RFP -2.1.
For O=C(C1=C[C@H](c2ccc(C(F)(F)F)cc2)C[C@H](OCc2ccc(CO)cc2)O1)N1CCN(Cc2ccc3c(c2)OCO3)CC1 the results were AF4-AF9 inh 3.3, RanGTP-Imp inh 6.6, Bfl-1 A1 inh 0.6, rRNA inh HTS 12, Calb FLC 6, Beta cell apopt 14, T cruzi inh 65*, Vif A3G -4%, rRNA inh HTS OD600 4 and rRNA inh HTS RFP 31.
For CCOC(=O)C1=NNC2C(=O)N(CC)C(=O)C12 (stereo unspecified) the results were RanGTP-Imp inh -2.5, Bfl-1 A1 inh 1.4, Calb FLC -6, Beta cell apopt -4, T cruzi inh -8 and Vif A3G -1%.
O=C(c1cc2ccccc2o1)N1CCN(S(=O)(=O)c2cccs2)CC1 was read as RanGTP-Imp inh 1.5, Bfl-1 A1 inh 0.3, Calb FLC -5, Beta cell apopt -11, T cruzi inh -4 and Vif A3G 4%.
Screening O=C(Cc1ccccc1)NCC(=O)OCC(=O)c1ccc(OC(=O)c2ccccc2)cc1 returned RanGTP-Imp inh -2.0, Bfl-1 A1 inh 0.6, Calb FLC -12, Beta cell apopt 2, T cruzi inh -4 and Vif A3G 5%.
For Oc1ccc(CN2CCN(Cc3ccccc3)CC2)c2cccnc12 the results were RanGTP-Imp inh 1.8, Bfl-1 A1 inh -0.2, Calb FLC 60*, Beta cell apopt 64, T cruzi inh 64* and Vif A3G 10%.
Screening CC(C)(C)NS(=O)(=O)c1ccc(NC(=O)Cc2ccccc2[N+](=O)[O-])cc1 returned AF4-AF9 inh 2.0, RanGTP-Imp inh -0.4, Bfl-1 A1 inh -2.4, Calb FLC -2, Beta cell apopt -2, T cruzi inh -17 and Vif A3G 0%.
Screening Cc1ccc(-c2c[n+](CC(=O)OCc3ccccc3)c3n2CCC3)cc1 returned AF4-AF9 inh 3.5, RanGTP-Imp inh 0.5, Bfl-1 A1 inh 0.2, rRNA inh HTS -14*, Calb FLC 4, Beta cell apopt -2, T cruzi inh 3, Vif A3G 5%, rRNA inh HTS OD600 9.3* and rRNA inh HTS RFP -0.5*.
COc1ccc(C2CC2/C(=N/O)c2ccccn2)cc1 (stereo unspecified) was read as AF4-AF9 inh 5.4, RanGTP-Imp inh -1.2, Bfl-1 A1 inh -1.3, rRNA inh HTS -34, Calb FLC 0, Beta cell apopt -3, T cruzi inh -9, Vif A3G 5%, rRNA inh HTS OD600 -56 and rRNA inh HTS RFP 3.3.
Cc1ccc(Oc2c(C)nc(-c3ccccc3)[nH]c2=O)cc1 was read as AF4-AF9 inh 0.3, RanGTP-Imp inh -0.6, Bfl-1 A1 inh -0.4, rRNA inh HTS 23, Calb FLC 4, Beta cell apopt 12, T cruzi inh -1, rRNA inh HTS OD600 14 and rRNA inh HTS RFP 1.8.
Cc1ccc(Cn2c(CN(C)Cc3ccccc3)nc3c2c(=O)n(C)c(=O)n3C)cc1 was read as RanGTP-Imp inh 6.1, Bfl-1 A1 inh -0.1, Calb FLC 12, Beta cell apopt -4, T cruzi inh 23 and Vif A3G 5%.
For CC1=NN(C(=O)c2ccccc2Br)C(O)(c2cccnc2)C1 (stereo unspecified) the results were RanGTP-Imp inh -0.9, Bfl-1 A1 inh -0.2, Calb FLC inconclusive, Beta cell apopt -4, T cruzi inh 3 and Vif A3G 3%.
COc1ccc(C(=O)COC(=O)c2cccs2)cc1 was read as AF4-AF9 inh -2.1, Bfl-1 A1 inh -13, rRNA inh HTS -5, Beta cell apopt -4, rRNA inh HTS OD600 -13 and rRNA inh HTS RFP -3.4.
